RE007 growth inh – less growth of the S. pombe RE007 Vpr strain; Potency, µM (doses to about 92.2 µM), for the others: at the top dose activity change, negative = less growth; S. pombe RE007 Vpr strain, BacTiter-Glo ATP luminescence, 24 h; control for the full effect not named in the record; hit rate 0.21% among 360,000; AID 651644; active = well fitted falling curve with a large enough effect; inconclusive = small, poorly fitted or top-dose-only effect; inactive = no such curve, though single readings can be large or run the other way;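 note: % is set by controls: 0 for no effect and ±100 for the full control effect; nearly all actives have a fitted effect of over 50% in size; the assay follows cell death caused by Vpr and the record does not say whether a fall means rescue or toxicity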
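Fission yeast RE007 carrying one integrated HIV-1 vpr copy, seeded at OD 0.01 in PMG+AL medium with 23 nL pinned compound. Grown 24 h at 30 degrees; viability read by BacTiter-Glo luminescence after 5 min.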
Cruzain inh noDet – blocks cruzain activity in detergent-free assay; P25779; purified cruzain, Z-FR-AMC fluorescence, no detergent; Potency, µM, for the others: max response, negative = inhibition, actives largely listed as inhibitors; hit rate 2.3% among 200,000;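 note: plate controls were enzyme without inhibitor for no effect and buffer without enzyme for full effect; nearly all actives have a fitted effect of over 40% in size; top concentration of the series not given in the record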
Target sequence (P25779 123-467 limits assumed): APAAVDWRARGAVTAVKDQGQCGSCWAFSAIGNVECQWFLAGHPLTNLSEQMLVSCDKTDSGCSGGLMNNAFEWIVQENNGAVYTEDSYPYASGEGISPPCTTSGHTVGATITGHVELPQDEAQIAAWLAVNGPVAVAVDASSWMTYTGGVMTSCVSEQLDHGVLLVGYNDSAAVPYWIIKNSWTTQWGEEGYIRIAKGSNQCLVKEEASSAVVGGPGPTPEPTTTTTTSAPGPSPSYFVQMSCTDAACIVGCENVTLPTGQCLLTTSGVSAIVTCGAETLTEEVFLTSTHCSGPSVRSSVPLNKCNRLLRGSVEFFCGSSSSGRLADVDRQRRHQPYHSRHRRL
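Detergent-free condition (0.00005% Triton X-100) in acetate buffer pH 5.5 with DTT. 1.5 nM enzyme and compound were pre-mixed 15 min, then 2 uM Z-FR-AMC substrate added; reaction progress from fluorescence change between first and third reads (60 s).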
NS1 inh – inhibitors of influenza NS1 protein function; S. cerevisiae slowed by influenza A NS1, growth recovery by OD600; Potency, µM (series often up to 46.1 µM), without a hit: top-dose activity, positive = more growth; hit rate 0.4% among 270,000; active means well fitted rising curve with a large enough effect; inconclusive means small, poorly fitted or top-dose-only effect; inactive means no such curve, though single readings can be large or run the other way; note: nearly all actives have a fitted effect of over 50% in size
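In this qHTS, NS1 from influenza A is expressed in budding yeast, where it slows growth. Cells are switched from glucose to 2% galactose medium (pH 6.0, -URA), treated with compound, and growth recovery is read at OD600.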
Lassa entry inh – blocks Lassa virus binding to or entry into cells | Lassa virus pseudotype entry inhibition, cell reporter; control for the full effect not named in the record | Potency, µM (top dose mostly 37.9 µM), inactives show at the top dose activity change, negative = inhibition, usual class: inhibitors | hit rate 1.2% among 300,000; active means well fitted inhibition curve with a large enough effect; inconclusive means small, poorly fitted or top-dose-only effect, or effect the other way; inactive means flat fitted curve, though single readings scatter; tested in HEK293 cells; note: % is set by controls: 0 for no effect and ±100 for the full control effect; nearly all actives have a fitted effect of over 50% in size; luciferase read-out
Cruzain inh Det – inhibitors of Trypanosoma cruzi cruzain with detergent. purified cruzain, Z-FR-AMC fluorescence, 0.01% Triton. Potency, µM, inactives show max response, negative = inhibition, usual class: inhibitors. hit rate 0.43% among 200,000;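 note: plate controls were neutral wells for no effect and buffer without enzyme for full effect; nearly all actives have a fitted effect of over 40% in size; top concentration of the series not given in the record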
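Compounds were screened in titration against cruzain (1.5 nM) with 0.01% Triton X-100 to counter colloidal aggregation. Activity was the AMC fluorescence increase over 60 s after adding 2 uM Z-FR-AMC at pH 5.5.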
SARS PLP yeast – inhibitors of SARS-CoV papain-like protease in yeast. Potency, µM (doses to about 32.9 µM), for the others: at the top dose activity, positive = growth rescue. hit rate 0.19% among 330,000. AID 485353. S. cerevisiae expressing SARS-CoV PLpro, growth rescue; control for the full effect not named in the record; active means well fitted rising curve with a large enough effect; inconclusive means small, poorly fitted or top-dose-only effect; inactive means no such curve, though single readings can be large or run the other way; note: 0% is about no effect; nearly all actives have a fitted effect of over 55% in size; growth read by luminescence after 48 h
StopGo reporter – FMDV 2A StopGo reporter, luciferase signal | Potency, µM (doses to about 57.9 µM), for the others: at the highest dose signal change, negative = less light | AID 1159524 | hit rate 1.2% among 410,000 | human cells with a luciferase reporter of 2A StopGo recoding; control for the full effect not named in the record; active = well fitted falling curve with a large enough effect; inconclusive = small, poorly fitted or top-dose-only effect; inactive = no such curve, though single readings can be large or run the other way; tested in HEK293T cells; note: % is set by controls: 0 for no effect and ±100 for the full control effect; nearly all actives have a fitted effect of over 45% in size; luciferase light after 4 h
Marburg entry inh – inhibitors of Marburg virus binding or cell entry. Potency, µM (doses to about 37.8 µM), inactives show at the highest dose activity change, negative = inhibition, usual class: inhibitors. Marburg virus pseudotyped entry inhibition, cell reporter; control for the full effect not named in the record; about a third of the inactives were read at about 46 µM. AID 540276. hit rate 1.8% among 300,000; active = well fitted inhibition curve with a large enough effect; inconclusive = small, poorly fitted or top-dose-only effect, or effect the other way; inactive = flat fitted curve, though single readings scatter; tested in HEK293 cells; about a fifth of its hits are not listed in these tables; note: % is set by controls: 0 for no effect and ±100 for the full control effect; luciferase read-out
Active calls of the source: *; u = inconclusive; x = not tested or not shown; & = joins results of further samples; [ ] = remark or other dose. Unless noted, calls come from the whole dose curve; as a rule, active = well fitted curve in the direction sought with a large enough effect; inconclusive = small, poorly fitted or top-dose-only effect, or another doubt; inactive = no such curve, though single readings can be large; an effect the other way counts as inactive or inconclusive. Potency is the fitted concentration of half-maximal effect.

cpd	structure	RE007 growth inh	Cruzain inh noDet	NS1 inh	Lassa entry inh	Cruzain inh Det	SARS PLP yeast	StopGo reporter	Marburg entry inh
1	Cc1cc(C)c2oc(=O)cc(CN3CCN(Cc4ccc5c(c4)OCO5)CC3)c2c1	-9.9%	-0.4%	-13.3%	2.9%	-1.5%	2.9%	u	15.1%&0.0%
2	O=C(CN1CCOCC1)Nc1cc([N+](=O)[O-])ccc1Cl	-14.3%	x	x	11.1%	x	1.0%	-8.7%	4.7%[46.1 µM]
3	CCc1nnc(NC(=O)CSc2nc(-c3ccccc3)c(-c3ccccc3)o2)s1	13.2%	u	-2.4%	8.0%	0.2%	6.6%	u	24.9%
4	COc1cc(OC)c(NC(=O)CN2CCCN(Cc3ccccc3C)S2(=O)=O)cc1Cl	x	-2.4%	x	-6.4%[46.1 µM]	-0.4%	x	-6.0%	x
5	Cc1ccc2c(CN3CCN(Cc4ccc5c(c4)OCO5)CC3)cc(=O)oc2c1C	7.4%	11.3%	-7.5%	-26.4%	3.4%	1.3%	x	-21.7%&0.5%
6	CC(C)CN(C(=O)COC(=O)c1ccc2c(c1)OCO2)c1c(N)n(Cc2ccccc2)c(=O)[nH]c1=O	-12.1%	x	x	-20.3%	x	-2.8%	-19.7%	-3.9%
7	O=C(Nc1cccc2c1CCCC2)c1ccc(Cl)c([N+](=O)[O-])c1	8.1%	-1.4%	6.2%	0.4%	-8.0%	-4.1%	25.1µM*	-6.5%
8	O=S(=O)(NC(=NCc1ccccc1)c1ccc(F)cc1)c1ccc(Cl)cc1	12.6%	x	-2.7%	x	x	-0.1%	55.9%[activator]	x
9	CN(C)C(CNC(=O)c1ccco1)c1cccs1 (configuration not stated)	-3.7%	x	x	u	x	0.5%	30.5%[activator]	17.5%
10	Cc1nc2ccc(S(=O)(=O)N(C)CC(=O)Nc3ccc(Br)c(C)c3)cc2s1	x	-4.7%	x	2.6%[46.1 µM]	-7.6%	x	u	-28.2%[46.1 µM]
11	Oc1[nH]c2ccccc2c1N=Nc1cccc(Cl)c1	u	x	0.4%	x	x	-1.5%	64.3%[activator]	x
12	CCOC(=O)N1CCC(NC(=O)C2CCCN(C(=O)c3cc4sccc4n3C)C2)CC1 (configuration not stated)	0.7%	u	-6.4%	x	1.4%	7.0%	u	0.0%

Full records from above. Screens in order: RE007 growth inh, Cruzain inh noDet, NS1 inh, Lassa entry inh, Cruzain inh Det, SARS PLP yeast, StopGo reporter, Marburg entry inh
CCOC(=O)N1CCC(NC(=O)C2CCCN(C(=O)c3cc4sccc4n3C)C2)CC1 (configuration not stated) as listed: 0.7%, u, -6.4%, x, 1.4%, 7.0%, u, 0.0%
O=C(Nc1cccc2c1CCCC2)c1ccc(Cl)c([N+](=O)[O-])c1 as listed: 8.1%, -1.4%, 6.2%, 0.4%, -8.0%, -4.1%, 25.1µM*, -6.5%
CCc1nnc(NC(=O)CSc2nc(-c3ccccc3)c(-c3ccccc3)o2)s1 as listed: 13.2%, u, -2.4%, 8.0%, 0.2%, 6.6%, u, 24.9%
CN(C)C(CNC(=O)c1ccco1)c1cccs1 (configuration not stated) as listed: -3.7%, x, x, u, x, 0.5%, 30.5%[activator], 17.5%
Cc1cc(C)c2oc(=O)cc(CN3CCN(Cc4ccc5c(c4)OCO5)CC3)c2c1 as listed: -9.9%, -0.4%, -13.3%, 2.9%, -1.5%, 2.9%, u, 15.1%&0.0%

(further entries)
cpd	structure	RE007 growth inh	Cruzain inh noDet	NS1 inh	Lassa entry inh	Cruzain inh Det	SARS PLP yeast	StopGo reporter	Marburg entry inh
13	CCCn1c(SCC(=O)c2cc(OC)ccc2OC)nnc1-c1ccco1	4.5%	u	-7.6%	-6.7%	-3.0%	7.7%	-9.7%	0.0%
14	Cn1nnnc1SCC(=O)N1c2ccccc2CCc2ccccc21	28.9%	3.8%	-1.5%	-5.7%	2.1%	2.9%	-12.4%	8.3%
15	COc1cccc(C(=O)NCCSc2ccc(F)cc2)c1	-12.5%	x	x	u	x	-3.8%	51.6%[activator]	-8.4%[46.1 µM]
16	CC1=NN(c2ccccc2)C(=O)/C1=C/c1c(O)[nH]c(=S)[nH]c1=O	-2.9%	4.7%	-3.3%	1.7%	-4.5%	-0.6%	u	11.2%
17	CCC(C)c1c(O)nc(SCC(=O)N2CCCCC2)[nH]c1=O (configuration not stated)	-14.4%	x	4.4%	x	x	0.8%	-5.6%	x
18	CN1CCN(S(=O)(=O)c2ccc(NC(=S)NC(=O)C3CC3)cc2)CC1	-10.8%	-8.0%	15.4%	5.3%	-1.0%	1.7%	22.9%	u
19	CC(=O)N1CCC(N2CCN(c3ccccc3F)CC2)CC1	4.3%	-3.8%	0.9%	u	1.3%	9.7%	0.7%	-1.2%
20	COC(=O)c1cc(CSc2nc3ccccc3c(=O)n2C)oc1C	38.5%	x	0.1%	u	x	-2.8%	u	u
21	CN1/C(=C\C(=O)Nc2cccnc2)c2ccccc2CC1(C)C	25.8%	-1.5%	4.6%	-2.6%	-1.4%	5.8%	4.3%	-3.6%
22	OC1CCN(Cc2cccc(Oc3ccccc3)c2)CC1	-0.4%	-3.0%	3.3%	2.4%	-1.9%	-2.7%	4.4%	12.9%
23	Cc1sc(NC(=O)c2ccc(F)cc2)c(CN2CCCCCC2)c1C	-14.9%	u	-10.9%	u	-4.7%	-3.2%	7.3%	u
24	CC(C)CN1C(=O)/C(=C/c2cccs2)NC1=S	-15.0%	-29.7%	-7.4%	-6.5%	-14.3%	-17.2%	-8.5%	u
25	CCc1nnc(NC(=O)c2cccnc2SC)s1	10.1%	x	19.4%	x	x	-3.0%	-10.1%	x
26	Cc1ccc(C(C)C)c(OCC(O)CNC2CCCC2)c1 (configuration not stated)	9.2%	x	2.4%	x	x	-2.9%	-4.4%	x
27	COC(=O)c1cc(S(=O)(=O)N2CCCC(C)C2)cn1C (configuration not stated)	1.3%	x	6.1%	x	x	-7.1%	-2.8%	x
28	CC/C(=N\NC(=O)c1ccc(CN(C)S(=O)(=O)c2ccc(C)cc2)cc1)c1ccc(OC(F)F)cc1	32.6%	1.8%	u	1.9%	1.2%	0.2%	0.0%	-2.0%
29	Cc1ccnc2nc(C(=O)OCC(=O)Nc3ccc4c(c3)OCCO4)nn12	2.0%	x	x	-1.9%[46.1 µM]	x	u	6.7%	1.2%[46.1 µM]
30	CCOC(=O)c1c(C)n(C)c2ccc(OC)c(NC(=O)CCN3CCC(Cc4ccccc4)CC3)c12	-8.4%	x	1.7%	x	x	0.3%	-15.7%	x
31	Cc1ccc(NC(=O)CSc2nc(=O)n(CCCN(C)C)c3c2CCC3)cc1F	x	-6.2%	x	-1.4%[46.1 µM]	-2.4%	x	-8.2%	x
32	Nc1n[nH]c(-c2ccccc2)n1	8.2%	-3.3%	7.3%	4.5%	-2.6%	3.9%	0.1%	2.3%&2.3%
33	CCOc1ccccc1N1CSC2=C(C#N)C(c3c(OC)ccc4ccccc34)CC(=O)N2C1 (configuration not stated)	-6.0%	15.8µM*	u	x	-8.1%	3.9%	-25.5%	x
34	CCOc1ccc(S(=O)(=O)N2CCOCC2)cc1NC(=O)CSC(=S)N1CCCC1	-7.3%	x	x	-12.3%	x	-4.1%	6.2%	-5.2%
35	CCCNS(=O)(=O)c1ccc(OCC(=O)N2CCC(C(=O)OCC)CC2)cc1	-1.0%	6.6%	2.9%	-8.1%	2.3%	3.9%	7.7%	-4.9%
36	Cc1ccc(F)cc1NC(=O)N1CCN(C2c3ccccc3-c3ccccc32)CC1	-19.9%	x	-0.5%	x	x	-0.4%	-13.2%	x
37	COc1cccc(Oc2ccc(N/C=C/C(=O)C(C)(C)C)cc2)c1	-4.9%	u	u	u	-17.4%	11.5%	-9.6%	u
38	O=C(O)CCCNC(=O)/C=C/c1ccco1	5.8%	x	-3.3%	u	x	0.3%	-8.7%	13.0%[46.1 µM]
39	Cc1ccc(S(=O)(=O)c2nc(-c3ccco3)oc2SCC(C)C)cc1	x	4.3%	x	-4.1%[46.1 µM]	-17.7%	x	-5.5%	-26.3%[46.1 µM]
40	COCCn1c(SCc2ccccc2Cl)nc2c1c(=O)[nH]c(=O)n2C	9.7%	2.6%	-13.3%	u	-1.7%	-5.4%	u	21.7%
41	COC(=O)Cc1c(C)c2cc3c(c(C)c2oc1=O)OCN(CCc1ccc(OC)cc1)C3	x	-6.7%	x	-7.9%[46.1 µM]	-2.4%	x	-8.3%	-0.8%[46.1 µM]
42	COc1ccc(CNS(=O)(=O)c2cccc(S(=O)(=O)N3CCOCC3)c2)cc1	4.0%	2.3%	4.1%	u	2.6%	-3.0%	x	-13.3%
43	O=c1cc(COc2ncnc3ccccc23)nc2sccn12	7.3%	x	0.3%	x	x	0.6%	-19.8%	x
44	COc1cc(C(=O)Nc2nnc(S(=O)(=O)N(C)c3ccccc3)s2)cc(OC)c1OC	x	-6.8%	x	36.0%[46.1 µM]	-1.7%	x	-1.7%	x
45	Cc1ccc(S(=O)(=O)N2CC(O)C[C@H]2C(=O)OCC(=O)Nc2ccc(N3CCOCC3)cc2)cc1C (some centres not stated)	-16.9%	x	x	-3.9%	x	0.0%	-3.0%	17.3%
46	O=C(c1ncc[nH]1)c1ccccc1Cl	-9.9%	x	4.7%	x	x	3.1%	-11.3%	x
47	CC(C)n1cc(CN2CCC(C(=O)Nc3ccc(Oc4ccccc4F)cc3)CC2)cn1	-5.5%	x	-12.2%	x	x	1.3%	-28.9%	x
48	Cc1cc(C)c(S(=O)(=O)N2CCCC2=O)cc1N(C)S(C)(=O)=O	-4.2%	x	1.5%	x	x	-0.6%	-0.8%	x
49	CCOC(=O)C1(CCCc2ccccc2)CCN(C(=O)c2cc(C)nn2CC)CC1	13.1%	x	-6.5%	x	x	0.2%	u	x
50	O=C(Cn1cccn1)N1CCCC(N2CCN(Cc3ccc4c(c3)OCO4)CC2)C1 (configuration not stated)	-4.1%	x	27.2%	x	x	5.4%	-11.9%	x

Assay outcomes: PubChem BioAssay, National Center for Advancing Translational Sciences (NCATS)
